LANA-H2B inh: blocks KSHV LANA binding to histone H2A/H2B. Q9QR71. cell-free LANA-H2A/H2B peptide, fluorescence polarization. inhibition, % (test concentration not listed). actives 0.6% (n = 320,000). AID 2629; in the data active = inhibition mostly above about 10%, no sharp cut-off; inactive = mostly below about 6.7%;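 note: stock transfer was 7.5 nL into about 10 µL; 0% = median of vehicle wells and 100% = median of positive control wells; one replicate is shown; the record names a cut of 25% in any replicate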
UCH37 DUB inh: human UCH37 deubiquitinating enzyme inhibition; inhibition, % (concentration not given with the values); purified proteasome/UCH37, Ub-AMC cleavage fluorescence; actives 0.33% (n = 330,000); Q9Y5K5; AID 588478;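 active = mean of two replicates above 20%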;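 note: 0% = compound-free wells with enzyme and 100% = wells lacking proteasome; stock transfer was 100 nL into about 20 µL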
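Schedule: 30 min plus 25 min, room temperature / Material: human UCH37 within purified proteasomes / Technique: AMC fluorescence intensity at 355/460 nm / Buffer or medium: pH 7.4 Tris-HCl (50 mM) with ovalbumin, ATP-MgCl2, DTT / Controls: wells without proteasome as full block, compound-free enzyme plus substrate as uninhibited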
Beta2AR agonist: activates human beta-2 adrenergic receptor causing internalization; P07550; Am2.2-beta2AR cells, FAP receptor internalization, flow cytometry; reference of the scale not given here; response, % (concentration not given with the values); actives 0.43% (n = 340,000);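 active = response above a set limit, near 3 SD of response in nonfluorescent compounds, cut at about 42% in these data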;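 note: stock transfer was 100 nL into about 11 µL; a reference agonist was the positive control; negative values mostly stem from fluorescent compounds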
Target sequence (P07550 whole entry, looked up): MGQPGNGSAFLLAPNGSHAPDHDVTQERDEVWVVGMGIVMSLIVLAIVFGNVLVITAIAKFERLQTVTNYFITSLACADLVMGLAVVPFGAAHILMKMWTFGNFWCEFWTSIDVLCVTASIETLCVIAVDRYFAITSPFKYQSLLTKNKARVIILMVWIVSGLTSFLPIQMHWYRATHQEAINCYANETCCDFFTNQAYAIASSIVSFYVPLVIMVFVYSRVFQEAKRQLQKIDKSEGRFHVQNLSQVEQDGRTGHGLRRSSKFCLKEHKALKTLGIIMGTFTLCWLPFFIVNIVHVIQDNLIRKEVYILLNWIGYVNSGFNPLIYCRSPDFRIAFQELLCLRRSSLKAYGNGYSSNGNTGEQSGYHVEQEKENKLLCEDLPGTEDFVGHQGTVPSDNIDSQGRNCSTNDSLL
E coli growth: inhibitors of Escherichia coli growth | OD600, 23 h; active compounds read low | OD600 absorbance (concentration not given with the values) | actives 0.21% (n = 330,000) | AID 1053175;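 active = OD600 absorbance below the run mean of sample wells minus 3.6 SD, in any replicate, cut at about 0.56 in these data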;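 note: stock transfer was 300 nL into about 60 µL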
Vif A3G: HIV-1 Vif–A3G interaction blockers – biochemical, TR-FRET, GST-Vif 1-94, biotin-A3G peptide, dose response retest, primary screen (AID 1117319). inhibition, %, or IC50 in µM where a hit was titrated. actives 0.57% (n = 260,000). TR-FRET GST-Vif / biotin-A3G peptide binding; higher % means a stronger effect; test concentration not given here; strong numbers were not always called active;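 active = above the screen mean plus three standard deviations and confirmed in dose response; inconclusive = results disagree or hit not tested in dose response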;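 note: Vif residues 1-94 fused to GST binding biotinylated APOBEC3G peptide 110-148; 0% = full assay without inhibitor and 100% = GST in place of GST-Vif; retest series ran down from 100 µM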
HNF4A DNA FP: change in binding of human HNF4 alpha to DNA | P41235 | HNF4a-FITC DNA binding, fluorescence polarization, 1 h | activity change, % at 10 µM | actives 0.3% (n = 360,000) | AID 1224865; in the data active = activity change above about 30%, passing the limit was not always enough;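 note: controls were the assay level and a saturating level of protein; the project sought stronger binding though the title names inhibitors; some compounds called inactive have numbers as strong as hits; positive values seem to mean higher polarization but the record does not say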
Target sequence (P41235 whole entry, looked up): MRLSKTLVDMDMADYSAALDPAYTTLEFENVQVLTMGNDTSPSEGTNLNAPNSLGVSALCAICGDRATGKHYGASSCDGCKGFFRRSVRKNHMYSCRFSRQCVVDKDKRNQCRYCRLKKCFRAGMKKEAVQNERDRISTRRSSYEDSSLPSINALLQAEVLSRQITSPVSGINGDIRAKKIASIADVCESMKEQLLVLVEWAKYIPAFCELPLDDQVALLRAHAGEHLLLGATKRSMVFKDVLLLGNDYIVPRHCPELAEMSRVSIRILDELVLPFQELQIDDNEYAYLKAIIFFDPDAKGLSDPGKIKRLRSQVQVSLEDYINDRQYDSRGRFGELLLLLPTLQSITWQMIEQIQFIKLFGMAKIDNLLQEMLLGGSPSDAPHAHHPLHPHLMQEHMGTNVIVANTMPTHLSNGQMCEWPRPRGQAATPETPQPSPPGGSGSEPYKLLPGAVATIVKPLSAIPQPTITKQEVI
A1 inh: inhibitors of the anti-apoptotic protein A1, read as caspase activation; MEF A1-2A-BIM cells, Caspase-Glo 3/7 luminescence, 3 h; percent of clofoctol response, vehicle zero; AID 2462; actives 0.066% (n = 330,000); caspase activation, % (no concentration beside the values);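 active = over half of replicate activation scores above 10%, or exactly half above 10 with the replicate mean above 10; inconclusive = replicate mean below 10 yet half the replicates above 10; inactive = over half of replicates below 10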;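 note: wells of about 30 µL received 50 nL stock; many hits fall short of the cut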
* = called active by the depositor; i = inactive; ? = inconclusive; · = no result given.

SMILES | LANA-H2B inh | UCH37 DUB inh | Beta2AR agonist | E coli growth | Vif A3G | HNF4A DNA FP | A1 inh
COC(=O)C1=C(CSc2nc3ccccc3s2)NC(=O)NC1c1ccc(F)cc1 (stereo not given) | 0.0 | 5.1 | 9.6 | 0.721 | 0.4% | 1.8 | 0.0
COc1ccc(C(=O)N(C)Cc2ccc(OC)c(OC)c2OC)cc1S(=O)(=O)N1CCOCC1 | · | 0.1 | -4.0 | 0.642 | · | -1.5 | ·
CCOC(=O)c1cnc2ccc(OCC)cc2c1NCc1ccccc1OC | -3.3 | -7.5 | -10.9 | · | · | 0.4 | -0.3
CCCCn1c(N)c(N(Cc2ccccc2OC)C(=O)c2cc(=O)[nH]c3ccccc23)c(=O)[nH]c1=O | -1.0 | -3.0 | 0.8 | 0.636 | -6.2% | 1.4 | -0.1
O=C(C1CCCN(Cc2ccc(Br)cc2)C1)N1CCCCC1 (stereo not given) | -1.5 | 3.6 | -7.5 | 0.682 | -7.0% | 1.6 | -0.1
O=C(COc1ncnc2ccccc12)NC1CCS(=O)(=O)C1 (stereo not given) | 4.5 | 0.3 | 6.3 | 0.674 | -1.2% | 0.9 | -0.8
Cc1ccc(S(=O)(=O)Cc2ccccc2Cl)cc1 | · | 2.4 | -3.6 | 0.689 | 4.5% | 1.2 | -0.9
C=CCN(C(=O)Cn1nc(C)n2c(cc3cc(C)ccc32)c1=O)c1ccccc1 | -0.9 | -5.6 | -1.9 | 0.712 | · | 0.8 | 1.0
Cn1c(=O)[nH]c(=O)c2c1nc(N1CCN(Cc3ccccc3)CC1)n2CCSc1ncccn1 | -0.5 | 6.9 | 4.5 | 0.745 | 25.1% | 3.9 | 0.1
CCOC(=O)C1(Cc2ccc(OC)cc2)CCN(C(=O)CCn2cccn2)CC1 | -3.2 | 0.0 | 5.2 | 0.663 | -6.4% | 3.5 | -0.7
O=C(COC(=O)c1ccccc1)c1ccc2c(c1)OCCO2 | · | -0.7 | -6.9 | 0.662 | -3.0% | 1.9 | ·
Cc1noc(C)c1NC(=O)Nc1cccc2c1O[C@@H](CN(C)Cc1ccc3c(c1)OCO3)[C@@H](C)CN([C@H](C)CO)C2=O | -1.5 | 7.3 | 4.8 | 0.733 | · | 3.9 | 0.2
N#CCC(=O)Nc1ccc(C(F)(F)F)cc1N1CCOCC1 | 5.5 | 0.0 | 14.3 | 0.689 | -1.6% | -2.0 | -0.2
CC(C)(C)NC(=O)NC(=O)CSc1ncccn1 | 0.6 | 3.2 | -6.5 | 0.686 | ? | -2.2 | -0.2
CC1CCC(NC(=O)c2ccc(S(C)(=O)=O)cc2)CC1 (stereo not given) | 1.2 | 3.7 | -2.0 | 0.724 | · | 1.0 | 0.9
CN(C(=O)CSc1ncnc2sc3c(c12)CCCC3)C1CCS(=O)(=O)C1 (stereo not given) | -0.9 | 0.7 | -7.2 | 0.674 | -5.0% | 1.2 | 0.2
Cc1ccc(C=Nc2ccccc2C#N)s1 | 2.4 | 3.6 | -4.5 | 0.705 | 5.0% | 1.4 | -2.5
CC(C)C[C@H](NC(=O)OC(C)(C)C)C(=O)N[C@@H](CO)[C@H](O)[C@@H]1C[C@@H]1C(=O)NC1CCCCC1 | -3.2 | 6.3 | 1.9 | · | · | 2.3 | -0.3
COc1ccc(CNCCNC(=O)c2cccs2)c(OC)c1OC | 1.7 | 2.7 | -6.5 | 0.669 | · | 2.1 | -0.1
COc1ccc(Oc2coc3cc(OC(=O)N4CCOCC4)ccc3c2=O)cc1 | -2.3 | 3.6 | -7.1 | 0.689 | 0.6% | -3.0 | 2.9
N#Cc1ccccc1OCC(=O)OCC(=O)c1ccc2c(c1)NC(=O)CO2 | -9.0 | -0.3 | 2.5 | 0.725 | -18.6% | 1.9 | 0.3
Cc1cccc(COCC(Cc2ccccc2)N2CCN(C(=O)c3cc(Cl)cc(Cl)c3)CCC2=O)c1 (stereo not given) | -5.4 | 1.4 | -3.3 | 0.676 | 10.3% | -1.5 | -0.8
CC(C)(C)OC(=O)N1CCCC(C(=O)Nc2cccc(C(=O)NCc3ccccc3)c2)C1 (stereo not given) | · | · | -4.7 | · | -6.9% | 1.1 | ·
O=C1N/C(=N/N=C/c2ccccc2O)SC1Cc1ccc(F)cc1 (stereo not given) | -0.5 | · | 0.7 | · | · | 5.1 | 1.4
CN(C)c1ccc(C2C3C(=O)N(c4ccc(C(=O)O)cc4)C(=O)C3ON2c2ccccc2)cc1 (stereo not given) | -2.7 | 5.4 | -12.9 | 0.772 | 30.2% | -1.3 | 2.1
COc1ccc(C)cc1NC(=O)C(OC(=O)c1cccc(S(=O)(=O)N(C)c2ccccc2)c1)c1ccccc1 (stereo not given) | -0.4 | 0.9 | 5.2 | 0.711 | · | -1.5 | -2.3
COC(=O)c1ccc(C)c(NC(=O)CSc2nnc3ccccn23)c1 | 1.3 | -1.8 | -5.2 | 0.701 | 5.6% | -2.1 | 0.5
O=C(COc1ncnc2ccccc12)c1ccc(Cl)cc1 | -1.6 | 2.7 | -6.9 | 0.659 | 4.0% | -1.0 | -0.8
CCOC(=O)C1CCN(CCC(=O)Nc2ccc(Cl)cc2)CC1 | 5.6 | 0.2 | 8.7 | 0.706 | -3.7% | 3.8 | 0.9
COc1ccc(-c2cc(=O)oc3c(C)c(OCC(=O)N(C)C)ccc23)cc1 | -8.8 | 0.6 | -11.6 | 0.65 | · | 1.1 | 0.7

Part of the list above with just Beta2AR agonist and E coli growth:
SMILES | Beta2AR agonist | E coli growth
COC(=O)c1ccc(C)c(NC(=O)CSc2nnc3ccccn23)c1 | -5.2 | 0.701
O=C(COc1ncnc2ccccc12)c1ccc(Cl)cc1 | -6.9 | 0.659
CCOC(=O)C1CCN(CCC(=O)Nc2ccc(Cl)cc2)CC1 | 8.7 | 0.706
COc1ccc(-c2cc(=O)oc3c(C)c(OCC(=O)N(C)C)ccc23)cc1 | -11.6 | 0.65

The listing continues.
SMILES | LANA-H2B inh | UCH37 DUB inh | Beta2AR agonist | E coli growth | Vif A3G | HNF4A DNA FP | A1 inh
CC(C(=O)Nc1nncs1)N1C(=O)C2C3C=CC(C3)C2C1=O (stereo not given) | -4.9 | 1.0 | -9.6 | 0.685 | · | 3.5 | 0.4
COc1ccc(-c2cc(C)nc(SCC(=O)c3cccc([N+](=O)[O-])c3)n2)cc1 | 0.1 | -0.3 | 2.4 | 0.669 | 38.6% | -1.3 | -0.2
Oc1ccc(N=C/C=C/c2cccc(Br)c2)cc1-c1nc2ccccc2s1 | 1.9 | 4.2 | 2.9 | 0.675 | 17.6% | -1.1 | -1.4
Cc1cccc(-c2noc(-c3cc4ccccc4oc3=O)n2)c1 | -0.8 | -40.5 | 6.4 | 0.654 | 6.1% | -2.3 | -4.1
CNc1c(NC(=O)C2CCC(C)CC2)c(=O)oc2ccccc12 (stereo not given) | -6.3 | -2.9 | -4.8 | 0.699 | · | -0.8 | -0.5
O=C(c1ccco1)N1CCN(Cc2cc(=O)oc3cc(O)ccc23)CC1 | 6.5 | i | -4.1 | 0.69 | 5.4% | 3.3 | 0.7
CCOCCCNC(=S)N1CCN(Cc2ccco2)CC1 | 4.1 | 3.1 | -1.1 | 0.662 | -1.9% | -0.7 | 0.2
Cc1ccc(/C=N/NC(=O)c2ccccn2)s1 | -4.5 | · | -3.6 | · | · | -1.3 | -6.4
CCOc1ccccc1NC(=S)N1CCN(c2nc(-c3cccc(OC)c3)cs2)CC1 | 2.6 | 3.4 | 20.5 | 0.748 | -42.0% | 5.4 | 0.6
COc1ccccc1-c1nnc(C2CCN(S(=O)(=O)c3ccccc3[N+](=O)[O-])CC2)o1 | 6.7 | 5.7 | -1.6 | 0.694 | 2.7% | 0.3 | -0.2
COC(=O)c1nn(-c2ccc(F)cc2)ccc1=O | 5.2 | 5.8 | -3.5 | 0.672 | · | -2.3 | 0.3
CC#CCN(CC#CC)S(=O)(=O)c1ccc(S(=O)(=O)N2CCOCC2)cc1 | -9.4 | 1.1 | 12.9 | 0.646 | ? | 0.4 | 0.1
c1cnc2c(SCc3ccc(-c4nnco4)cc3)cccc2c1 | -1.5 | -26.2 | 29.9 | 0.776 | -6.3% | -0.2 | -4.0
COc1ccccc1N1C(=NC(=O)COc2ccccc2)SC2CS(=O)(=O)CC21 (stereo not given) | -1.7 | 2.5 | -10.0 | 0.655 | · | -1.9 | 1.2
COC(=O)CN1C(=O)CC(C)(C)Sc2ccccc21 | 0.9 | 7.0 | 3.2 | 0.767 | -1.1% | 3.2 | 2.4
COCCN1Cc2cccc(C(=O)NC3CCCCCC3)c2C1=O | 2.3 | -0.6 | -16.9 | 0.693 | 4.5% | -4.1 | -0.2
CCOC(=O)C1(Cc2ccccc2C(F)(F)F)CCN(C(=O)c2cc(C(C)=O)n[nH]2)CC1 | 1.4 | 0.0 | -7.5 | 0.711 | -5.3% | -1.6 | 0.0
CC(C)(C)C(=O)Nc1ccccc1C(=O)Nc1cc(Cl)ccc1Cl | -4.0 | 3.0 | -6.5 | 0.721 | 5.1% | -2.5 | 1.6
CCCCN(C)C(=O)c1cn(C)c2ccc(S(=O)(=O)N3CCC(C)CC3)cc2c1=O | -1.8 | 5.7 | 22.6 | 0.673 | -4.1% | 5.9 | 0.8
Cc1ccc(C(=O)N2NC(c3ccc(F)cc3)C3C(=O)N(c4ccc(C)cc4)C(=O)C32)cc1 (stereo not given) | -4.4 | 2.4 | 2.7 | 0.703 | 21.1% | 1.8 | -0.1
CCC1(c2ccc(F)cc2)NC(=O)N(CC(=O)N2CCN(S(=O)(=O)c3ccc(C)cc3C)CC2)C1=O (stereo not given) | · | 1.0 | -0.6 | 0.687 | · | 1.9 | ·
CC(=O)Nc1nnc(SCc2cccc(F)c2)s1 | 1.1 | -1.7 | -12.0 | 0.691 | -9.4% | 1.0 | -1.0
Cc1ccc(C(NC(=O)C2CCCCC2)c2c(O)ccc3ccccc23)cc1 (stereo not given) | 2.6 | 2.5 | 2.0 | 0.744 | -1.9% | 0.3 | 0.3
N#CC1(c2ccccc2)CCC(=NNS(=O)(=O)c2ccccc2)CC1 (stereo not given) | -1.8 | 2.0 | 2.8 | 0.634 | · | -1.7 | -1.1
C=CCc1ccccc1OCC(O)CN1CCOCC1 (stereo not given) | -1.7 | 0.4 | -7.0 | 0.646 | · | -3.8 | 1.1
O=[N+]([O-])c1ccc(O)c(/C=N/Nc2ccccn2)c1 | 3.2 | · | 8.4 | · | ? | -4.2 | -2.0
CC1CN(C(=S)NC(=O)C2CCCCC2)CC(C)O1 (stereo not given) | -0.7 | · | 2.1 | · | · | -3.7 | -0.4
C=CCOC1COC2C(OCC=C)COC12 (stereo not given) | · | 0.9 | 6.1 | 0.689 | 1.6% | -4.3 | ·
Cc1c(Cl)cccc1NC(=O)NCc1cccnc1 | -0.8 | 3.8 | 1.0 | 0.646 | · | 0.5 | 0.9
O=S(=O)(Nc1ncccn1)c1ccc(NC(=S)N2CCN(Cc3ccc(F)cc3Cl)CC2)cc1 | -0.2 | 2.2 | 2.6 | 0.72 | 1.9% | 1.8 | -0.7
Cc1ccc(C(=O)N2CCC(C(=O)c3c(C)cc(C)cc3C)CC2)cc1 | 3.4 | -1.1 | 5.4 | 0.645 | 0.2% | -0.9 | -0.9
C(=N\N1CCN(C2c3ccccc3-c3ccccc32)CC1)/c1ccccn1 | -1.2 | · | 0.3 | · | 1.9% | 3.1 | 0.7
